# Bioassay records as filed in PubChem BioAssay.
# ugtP null kill – growth inhibition of S. aureus ugtP deletion strain. S. aureus RN4220 ugtP deletion, OD600 growth, 16 h; some inactives read as strong as hits. growth inhibition, % (concentration not given with the values). actives 0.54% (n = 330,000);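 active means z-score under -3 and OD600 up to 0.15 on both plates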;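 further: plate controls were untreated wells for no effect and antibiotic for full effect; wells of about 80 µL received 100 nL stock; the first replicate is given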
# RN4220 kill – S. aureus RN4220 growth inhibition; OD600, 16 h; inhibition, % (no concentration beside the values); actives 0.33% (n = 330,000); AID 1259311;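 active means z-score of -3 or lower and OD600 up to 0.18 on both plates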;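 further: plate controls were untreated cells for no effect and reference antibiotic for full effect; stock transfer was 100 nL into about 80 µL; one replicate is shown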
# PrP 5UTR inh – suppresses PrP 5' UTR mRNA reporter expression | cell-based PrP 5' UTR mRNA reporter, plate reader | inhibition, % (concentration not given with the values) | actives 0.35% (n = 340,000) | AID 488862;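 active means every replicate at 50% or more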;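 further: 0 = median of the neutral control wells; tested in H4 reporter cells; numbers are from one replicate; inactives centre near -14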
# Bead autofluor – counter-screen for toxin protease inhibitors: compound fluorescence; compound autofluorescence counterscreen, microsphere flow cytometry; active compounds read high; fluorescence intensity (test concentration not listed); actives 3.1% (n = 360,000);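 active means at least 3 SD above the mean of all compounds, about 16000 in these data; inconclusive means too few beads counted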;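 further: 100 nL of 1 mM stock went into each well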
# Mtb hypoxia inh – Mtb hypoxia fluorescent reporter inhibition | M. tuberculosis hypoxia-regulated fluorescent reporter, fluorescence | fluorescence inhibition, % (concentration not given with the values) | actives 0.1% (n = 300,000) | AID 1159583;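 active means 35 to 45% if threefold the growth effect, above 45% if 1.5-fold the growth effect; inactive means the rest, general growth blockers included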;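 further: wells of about 50 µL received 100 nL stock; 0% = vehicle wells and 100% = reference inhibitor wells; whole bacteria with a GFP reporter of the hypoxia response; strong numbers were not always called active; many hits fall short of the cut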
# BJeLR viability – BJeLR cell viability loss; BJeLR (HRASV12) viability, CellTiter-Glo ATP luminescence, 48 h; reference of the scale not given here; inhibition, % (test concentration not listed); actives 0.17% (n = 300,000);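 active means replicate mean above 50%; inconclusive means above 50% but judged a plate artefact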;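 further: 50 nL library stock added to about 25 µL; numbers are from one replicate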
# Mtb hypoxia inh growth – further read-out of Mtb hypoxia inh, marked with its call; growth inhibition, %; measured here: M. tuberculosis growth (absorbance);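 0% = vehicle and 100% = reference antibiotic; read after six days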
# Active calls of the source: *; ? = inconclusive; / = not tested or not shown.
cpd	Structure	ugtP null kill	RN4220 kill	PrP 5UTR inh	Bead autofluor	Mtb hypoxia inh	Mtb hypoxia inh growth	BJeLR viability
1	COc1c(C)cc(Br)cc1C(=O)NCc1cccnc1	-1	4.8	-27	10843	9	-2	-4
2	CCN1CCN(S(=O)(=O)c2ccc(Cl)c(C(=O)NC3CCC(C)CC3)c2)CC1 (stereo unspecified)	-3	-1.9	-4	3810	2	13	/
3	COCCNC(=O)C(c1ccco1)N(C(=O)Cn1nnc2ccccc21)c1ccc(C)cc1C (stereo unspecified)	2	-0.4	-17	3138	/	/	3
4	COC(=O)c1ccccc1NC(=O)NC1CCC(C)CC1 (stereo unspecified)	-6	-0.4	-12	2172	5	10	10
5	CC1(C)CCCC2=C1CC1C(=O)N(N)C(=O)C1C2 (stereo unspecified)	-5	-2.8	-9	5502	-3	-9	-4
6	Cc1cccc(N(C)C(=O)CN2C(=O)COc3ccc(S(=O)(=O)N4CCCCCC4)cc32)c1	-9	-1.4	-13	5370	-6	-6	3
7	CCN(Cc1ccccc1)S(=O)(=O)c1cc(C(=O)NCCCN(C)C)ccc1OC	2	1.0	-10	4500	14	8	-3
8	Cn1c(=O)c2[nH]c(N3CCN(c4ccccc4)CC3)nc2n(C)c1=O	6	4.2	-26	3392	-2	-1	8
9	COc1ccc(-c2c(C#Cc3ccsc3)c3cc(-c4ccc(OC)nc4)ccc3n2C)cc1	-1	-0.2	-18	3628	-1	-1	/
10	O=C(CCOc1ccccc1)Nc1ccccc1	-1	0.3	0	2806	/	/	-7
11	COc1ccccc1C=NNC(=O)c1ccc2c(c1)OCO2	5	5.3	/	/	15	5	/
12	O=S(=O)(Nc1cc(S(=O)(=O)N2CCCC2)ccc1O)c1ccc(Cl)s1	-4	6.9	-30	5865	7	-1	/
13	CC(CC(=O)Nc1ccc(Cl)cc1C(F)(F)F)=NNC(=O)c1ccccn1	5	1.3	/	/	-1	-4	/
14	COc1ccc(/C=C2\SC(N)=NC2=O)cc1Cl	-4	-0.5	17	3093	1	-5	-2
15	C=CCn1c(SCC(=O)Nc2cc(C)cc(C)c2)nnc1-c1cnccn1	6	2.1	-27	9515	2	5	/
16	CC1CCC(NC(=O)C2(C)CCC(=O)N2Cc2cccnc2)CC1 (stereo unspecified)	7	4.0	-7	5054	7	-1	2
17	O=C(Nc1ccc(Cl)cc1F)C1CCN(S(=O)(=O)c2cccc3nonc23)CC1	8	9.5	-11	4339	6	7	-14
18	CC(NCC(O)COCCC12CC3CC(CC(C3)C1)C2)c1ccccc1 (stereo unspecified)	-33	-6.7	-17	2635	19	13	22
19	CC1CCCN(C(=O)CSc2nnc(-c3ccco3)n2C)C1 (stereo unspecified)	1	0.6	-11	4280	-1	0	4
20	CC(=O)N(CCC(Cc1ccccc1)c1ccco1)Cc1ccco1 (stereo unspecified)	14	7.0	-14	4158	9	-1	0
21	CC1CCCCN1C(=O)COC(=O)CNC(=O)c1sc2ccccc2c1Cl (stereo unspecified)	7	5.1	-12	4549	7	4	3
22	Nc1nnc(C2CCCC2)s1	2	5.2	-24	4311	6	7	-3
23	O=C(CSc1ccsc1[N+](=O)[O-])N1CCCCCC1	2	4.4	-19	2064	10	8	-1
24	COc1cccc(C2(O)CCN(C(=O)Cc3cccnc3)CC2)c1	-5	-3.5	-19	2996	/	/	-3

# Complete entries from above. Order of values: ugtP null kill | RN4220 kill | PrP 5UTR inh | Bead autofluor | Mtb hypoxia inh | Mtb hypoxia inh growth | BJeLR viability
# `Nc1nnc(C2CCCC2)s1` as listed: 2 | 5.2 | -24 | 4311 | 6 | 7 | -3
# `COc1cccc(C2(O)CCN(C(=O)Cc3cccnc3)CC2)c1` as listed: -5 | -3.5 | -19 | 2996 | / | / | -3

# Continued.
cpd	Structure	ugtP null kill	RN4220 kill	PrP 5UTR inh	Bead autofluor	Mtb hypoxia inh	Mtb hypoxia inh growth	BJeLR viability
25	Cc1ccc(NCC(=O)Nc2ccc(Br)cc2)cc1C	-2	2.7	-39	3509	11	3	11
26	COc1ccc(C(CNS(=O)(=O)c2ccc(F)cc2)N2CCN(C)CC2)cc1 (stereo unspecified)	2	0.7	13	/	3	0	2
27	CCOC(=O)c1c(-c2ccc(F)cc2)csc1NC(=O)CCN1CCOCC1	6	5.3	-12	10799	11	5	-5
28	COc1ccc(Br)cc1/C=C1\Oc2ccccc2NC1=O	-1	2.6	-13	4231	1	-2	9
29	COc1ccc(C2c3c(ccc4ccccc34)Oc3ncn4nc(CON=Cc5ccccc5)nc4c32)cc1 (stereo unspecified)	12	0.3	/	/	16	-2	/
30	N#CC1=C(N)Oc2c(c(=O)oc3ccccc23)C1c1cccnc1 (stereo unspecified)	-2	4.4	-1	4024	0	9	11
31	O=C1CC(c2cccc(F)c2)SC(N(c2ccccc2)c2ccccc2)=N1 (stereo unspecified)	4	4.4	-21	23403*	4	3	-11
32	CC(C)CNS(=O)(=O)c1cc2c3c(c1)CC(=O)N3CCC2	0	3.9	-15	4244	-1	0	-3
33	O=C(COC(=O)c1cccc(C(F)(F)F)c1)NCc1ccccc1	13	3.7	-24	2427	3	-3	6
34	CC(Nc1ccccc1)c1ccncc1 (stereo unspecified)	0	4.1	-11	4302	4	6	-3
35	O=C(CN1CCN(C(=O)c2ccco2)CC1)Nc1ccc2c(c1)OCCO2	2	-2.0	2	3550	14	-2	-7
36	CC(C)NC(=O)c1ccc(C(C)C)cc1	/	/	-22	4266	/	/	-4
37	COc1ccc(NC(=O)CSc2ccc(-c3cccnc3)nn2)cc1	11	4.5	-7	/	9	12	-14
38	CSc1ncc(F)c(N(CCO)CCO)n1	7	2.9	-3	1997	5	4	7
39	Cc1cccc(NCc2ccc(Br)cc2)n1	11	1.8	-4	3729	-15	7	4
40	CCn1c(NCc2ccco2)nc2ccccc21	3	2.8	-24	4593	4	3	6

# 2 records drawn at random from the list so far, as already listed:
cpd	Structure	ugtP null kill	RN4220 kill	PrP 5UTR inh	Bead autofluor	Mtb hypoxia inh	Mtb hypoxia inh growth	BJeLR viability
34	CC(Nc1ccccc1)c1ccncc1 (stereo unspecified)	0	4.1	-11	4302	4	6	-3
36	CC(C)NC(=O)c1ccc(C(C)C)cc1	/	/	-22	4266	/	/	-4

# (list continues)
cpd	Structure	ugtP null kill	RN4220 kill	PrP 5UTR inh	Bead autofluor	Mtb hypoxia inh	Mtb hypoxia inh growth	BJeLR viability
41	Cc1cccc(OCCCCc2c(C)n[nH]c2C)c1C	-24	11	-6	11271	6	7	24
42	CN(CC(=O)Nc1cccc(C(F)(F)F)c1)Cc1ccccc1	1	1.8	-14	5720	-1	2	0
43	CC(=O)c1cccc(N2C(=O)C3C4CCC(C4=C(C)C)C3C2=O)c1 (stereo unspecified)	10	2.3	-13	2046	1	-7	-5
44	CC1CC(=O)Nc2ccccc2N1C(=O)CSc1ncnc2sccc12 (stereo unspecified)	0	2.5	-10	3951	23	6	/
45	CCOC(=O)c1cnc(SCC(=O)Nc2ccc(NC(=O)CC)c(OC)c2)nc1N	1	1.1	-24	4465	-2	-5	0
46	Cc1cc(=O)oc(C)c1C(=O)Nc1cccc2nonc12	8	3.4	-27	2249	/	/	-4
47	CCC(C)[C@H](NC(=O)Nc1ccc2c(c1)OCCO2)C(=O)O (stereo partly specified)	4	1.6	-19	8933	-1	3	-6
48	Cc1cc(C(=O)OCC(=O)Nc2cccc(S(=O)(=O)N(C)C)c2)c(C)o1	4	-0.1	-17	5408	6	-1	-5
49	FC(F)(F)c1nnc(-c2ccccc2)nc1N1CCOCC1	11	5.2	-3	16117	0	-6	3
50	Cc1cc(CN(C)C(=O)CC2C(=O)NCCN2Cc2c(F)cccc2Cl)on1 (stereo unspecified)	-3	-1.1	-1	4069	-2	-5	7
51	O=C(OCn1nnc2ccccc2c1=O)c1ccc2c(=O)n3c(nc2c1)CCC3	8	5.6	-19	8892	15	7	-10
52	Cc1cc(C)n(CC(=O)NC2CCCCC2)n1	-1	-0.8	-3	15823	2	9	1
53	COc1ccc(CN(C2CCCC2)S(=O)(=O)c2ccc(-n3cnnn3)cc2)cc1OC	-7	-0.5	-18	3534	/	/	-2
54	COc1ccc(-n2c(CNC(=O)COc3ccccc3)n[nH]c2=S)cc1	3	4.9	-15	4621	2	2	10
55	O=C(c1ccccc1Br)N1CCN(c2ccccn2)CC1	2	1.8	-9	4276	18	1	-5
56	COc1ccc(-c2ccc(SCC(=O)N3CCN(c4ccccc4)CC3)nn2)cc1	2	0.5	-19	4211	13	3	3
57	NC(=S)N/N=C1\CCOc2ccc(Cl)cc21	/	/	-31	5880	/	/	-6
58	COc1ccc(S(=O)(=O)N2CCc3ccccc32)cc1C(=O)N1CCOCC1	9	2.1	-4	?	5	1	-7
59	Cc1cc(NS(=O)(=O)c2ccc(Nc3nc(-c4sc(N)nc4C)cs3)cc2)no1	/	/	5	2915	/	/	-1
60	Cc1ccccc1NC(=O)Cn1cnc2c1c(=O)n(C)c(=O)n2C	10	6.6	-19	3409	8	6	-8
61	COC(=O)c1ccccc1S(=O)(=O)Nc1ccc2cn[nH]c2c1	2	0.9	-18	4670	/	/	3
62	COc1ccccc1N(C)S(=O)(=O)c1ccc(C(=O)Nc2ncc(C)s2)cc1	-9	-2.4	-8	3676	-15	1	/
63	Cc1cc([N+](=O)[O-])ccc1NC(=O)Nc1ccccc1F	-2	-3.4	-11	2476	3	9	1
64	O=C(Oc1cccc(/C=N/Nc2nc(N3CCOCC3)nc(N3CCOCC3)n2)c1)c1ccco1	/	/	-16	4610	/	/	1
65	COc1cc(C(=O)Nc2nc(-c3ccc(Cl)cc3)c(C)s2)ccc1OCC(=O)Nc1ccc(F)cc1	/	/	-5	2196	/	/	-6
66	Cc1[nH]nc(SCC(=O)Nc2cccc(O)c2)c1[N+](=O)[O-]	0	6.6	-5	5091	13	2	7
67	O=C(NCCC1=CCCCC1)c1cnc2n(c1=O)CCS2	5	0.5	-10	24855*	16	9	-2
68	O=C(O)CC1=C(O)C(=O)N(c2ccccc2)C1c1ccc(Cl)cc1 (stereo unspecified)	0	2.6	-8	3406	-15	-4	-2
69	CCOC(=O)Cc1csc(NC(=O)/C=C/c2ccccc2Cl)n1	-1	0.6	-8	4832	12	8	10
70	CCOc1cc(C)c(S(=O)(=O)NCCCn2ccnc2)cc1C	8	7.7	-3	3100	1	13	5
71	Clc1ccc(Oc2cnc3ccccc3n2)cc1	21	6.6	-31	24944*	1	16	1
72	C=CCOc1cccc(NC(=O)c2ccccc2SC)c1	12	1.0	4	2531	13	13	-9
73	Cc1cc(C(=O)OCC(=O)NCCCN2CCCC2=O)c2ccccc2n1	-4	2.4	-11	10715	3	9	-2
74	Cc1ccc(C(=O)NC(=S)Nc2ccc(N3CCN(C(=O)c4ccco4)CC3)cc2)cc1	91*	5.1	-23	5717	4	11	-5
75	C[n+]1cccc(C=NNc2nc(Cl)c(C#N)c(Cl)c2Cl)c1	11	0.0	/	/	14	5	/
76	Cc1ccc(-c2cc(C(=O)N3CC(C)OC(C)C3)c3ccccc3n2)o1 (stereo unspecified)	1	0.9	-25	6798	-3	-10	8
77	Cc1ccc2nc(N3C(=O)C(O)=C(C(=O)c4ccc(C)o4)C3c3ccc(O)cc3)sc2c1 (stereo unspecified)	87*	44	-7	4572	0	-1	/
78	O=C(COc1ccc(Cl)cc1Cl)Nc1c(-c2cccs2)nc2ccccn12	-2	5.4	-13	2580	8	3	12
79	COc1cccc(CN(Cc2cccnc2)S(=O)(=O)c2ccc(-n3cnnn3)c(C)c2)c1	-7	-0.8	-4	8172	5	-3	16
80	Cc1cccc(C)c1NC(=O)C1CCN(S(C)(=O)=O)CC1	0	0.2	13	3916	-2	2	-9
81	Cc1cc(C)cc(NC(=O)N2C3CCCC2CC(NC(=O)C2CC2)C3)c1 (stereo unspecified)	2	1.8	-8	5970	1	-8	1
82	CCOc1ccc(N(CC(=O)NC2CCCCC2)C(=O)CSc2nnc(COc3ccccc3)o2)cc1	5	1.0	-25	4798	/	/	-3
83	O=C(Cn1cncc1-c1ccc([N+](=O)[O-])cc1)Nc1cccc2ccccc12	-8	2.0	-13	2018	-4	4	-15
84	COCC(=O)N1CCc2ccc(NC(=O)c3ccccc3Cl)cc2C1	4	3.8	-26	4141	7	4	-11
85	C=CCNC(=S)Nc1ccc(N2CCOCC2)c(S(=O)(=O)Nc2ccccc2Cl)c1	2	-4.0	-23	4047	5	5	0

# The order is random, and some 4.1% of all compounds hit somewhere here.
